# Screens from PubChem.
# Mtb growth: Confirmatory growth inhibition assay against Mycobacterium tuberculosis H37Rv, potency (AID 1949). most inactive calls were filed without a number and no value below 0 was filed. one-dose inhibition, % at 10 µg/mL; IC50 in µg/mL for titrated hits. actives 1.6% (n = 100,000);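 active = confirmed in a dose series; inconclusive = about 50% or more but not retested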;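 also: bacteria grown 7 days with compound before Alamar blue readout; 0% = untreated bacteria and 100% = reference antibiotic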
# * marks the source's active call; other numbers are inactive results; i = inactive; ? = inconclusive.
SMILES,Mtb growth
COc1ccc(Cl)cc1NC(=O)CN(c1ccc(C)cc1)S(C)(=O)=O,2%
CC(=O)c1ccc(NC(=S)NC(NC(=O)Cc2ccccc2)C(Cl)(Cl)Cl)cc1 (stereo not given),i
Cc1ccc(C(=O)Nc2ccccc2N2CCN(C(=O)c3ccc(Cl)cc3)CC2)cc1Cl,21%
CCOc1ccccc1OCCOc1ccc(Cl)c(C)c1C,i
Cc1cccc(-c2noc(-c3ccc(C(C)(C)C)cc3)n2)c1,20%
CCOC(=O)CSc1nc2ccc(I)cc2c(=O)n1-c1cccc(C)c1,i
Cc1ccc(-c2csc(NC(=O)C(C)C)n2)cc1C,42%
O=C(C1CCN(Cc2cccc(OCc3ccccc3)c2)CC1)N1CCN(Cc2ccccc2)CC1,i
CCn1c(CNC(=O)c2ccccc2Cl)nnc1SCC(=O)Nc1ccc(F)cc1,i
C=CCOc1ccccc1CNn1c(C)n[nH]c1=S,i
COc1cccc(C(=O)Nc2nnc(-c3ccc(OC)c(OC)c3)s2)c1,i
CC(C)c1ccc2oc(-c3ccc(NC(=O)COc4ccccc4)cc3)nc2c1,1%
O=C(CSCCO)Nc1ccc(Cl)cc1,i
CCOC(=O)c1c(N)sc2c1CCC(C#N)(c1ccccc1)C2 (stereo not given),i
CCc1ccccc1NC(=O)COc1ccc(C(C)C)cc1,i
CCSc1nc2ccccc2n1Cc1nc(N)nc(N(C)C)n1,3%
CSc1ccccc1NC(=O)CN1C(=O)c2cccc3cccc1c23,i
CCn1c(CCNC(=O)c2cccs2)nnc1SCC(=O)NC1CCCCC1,i
COc1cc(NC(=O)c2ccccc2Oc2ccccc2)cc(OC)c1OC,34%
O=C(Oc1ccc(OC(=O)N2CCCCC2)cc1)N1CCCCC1,i
Cc1sc(NC(=O)COc2ccc(Cl)cc2Br)c(C(N)=O)c1C,3%
Cn1c2ccc(F)cc2c2nc3ccccc3nc21,?
Cc1cc(C(=O)NCCC2=CCCCC2)no1,i
CCOC(=O)Cn1cnc2sc(C(=O)OC)c(C)c2c1=O,i
O=C(c1ccc2c(c1)OCCO2)N1CCOCC1,i

# Continuation.
SMILES,Mtb growth
Cc1c(Cl)cccc1N(CC(=O)Nc1ccccc1)S(C)(=O)=O,i
O=c1c(-c2ccccc2Cl)c(C(F)(F)F)oc2c(O)c(O)ccc12,5%
O=C1c2ccccc2C(=O)N1CCCc1nc2ccccc2c(=O)n1-c1ccc(Cl)cc1Cl,i
FC(F)(F)c1cccc(-n2c(-c3cccs3)n[nH]c2=S)c1,i
Nc1ncnc(N2CCC(Cc3ccccc3)CC2)c1[N+](=O)[O-],3%
O=C(CSc1ccc2ccccc2n1)Nc1nsc(-c2ccc(Cl)cc2)n1,i
COc1ccc(NC(=O)CSc2nnc(-c3ccncc3)n2C)c([N+](=O)[O-])c1,i
CN(Cc1ccccc1)C(=O)c1ccccc1NC(=O)c1ccco1,i
CC1CN(C(=O)Nc2ccccc2C(F)(F)F)CC(C)O1 (stereo not given),i
COc1ccc(NS(=O)(=O)c2ccc(NC(=O)COc3ccc(Cl)cc3C)cc2)cc1,i
Cc1cc(OCCCCN2CCCC2)ccc1[N+](=O)[O-],2%
O=C(c1ccccc1CCc1ccccc1)N1CCOCC1,i
Cc1ccc(C(=O)CNc2ccc(Br)cc2)cc1,i
COc1cc(OC)c(C(=O)NCCCN2CCOCC2)cc1OC,i
CCN(c1ccccc1)c1ncnc(N)c1[N+](=O)[O-],i
Cc1ccc(C2c3c(oc4ccccc4c3=O)C(=O)N2CC2CCCO2)cc1 (stereo not given),i
CC(C)NCCOCCOc1ccc(Cl)cc1Br,i
O=C(CCN1C(=O)C2C3C=CC(C4CC34)C2C1=O)Nc1ccc(Cl)cc1O (stereo not given),i
COc1ccc(NC(=O)CSc2nc3ccccc3[nH]2)cc1Cl,?
Cc1ccc(-c2cc(C(=O)NC3CC3)c3ccccc3n2)cc1C,1%
CCCCn1c(CCC(=O)O)ccc1-c1ccc(F)cc1,1%
O=C(CSc1ncnc2sc3c(c12)CCC3)Nc1ccc(Cl)cc1,i
Cc1ccc(C(=O)Nc2ccccc2C#N)c(Cl)c1,i
COc1cc(C2NC(=O)N(C)C(C)=C2C(=O)OCC2CCCO2)cc([N+](=O)[O-])c1O (stereo not given),i
Cc1cc(Cl)ccc1NC(=O)CSc1c(-c2ccccc2)c2cc(Cl)ccc2[nH]c1=O,i

# 12 entries from above, as tab-separated lines:
SMILES	Mtb growth
O=C(Oc1ccc(OC(=O)N2CCCCC2)cc1)N1CCCCC1	i
Cc1sc(NC(=O)COc2ccc(Cl)cc2Br)c(C(N)=O)c1C	3%
Cn1c2ccc(F)cc2c2nc3ccccc3nc21	?
Cc1cc(C(=O)NCCC2=CCCCC2)no1	i
CCOC(=O)Cn1cnc2sc(C(=O)OC)c(C)c2c1=O	i
O=C(c1ccc2c(c1)OCCO2)N1CCOCC1	i
Cc1c(Cl)cccc1N(CC(=O)Nc1ccccc1)S(C)(=O)=O	i
O=c1c(-c2ccccc2Cl)c(C(F)(F)F)oc2c(O)c(O)ccc12	5%
O=C1c2ccccc2C(=O)N1CCCc1nc2ccccc2c(=O)n1-c1ccc(Cl)cc1Cl	i
FC(F)(F)c1cccc(-n2c(-c3cccs3)n[nH]c2=S)c1	i
Nc1ncnc(N2CCC(Cc3ccccc3)CC2)c1[N+](=O)[O-]	3%
O=C(CSc1ccc2ccccc2n1)Nc1nsc(-c2ccc(Cl)cc2)n1	i

# Next results follow:
SMILES,Mtb growth
Cc1nnc(SCc2ccc(F)cc2)n1-c1ccc(F)cc1,i
Cc1ccc(S(=O)(=O)N(C)c2ccccc2C(=O)Nc2c(C)cc(C)cc2C)cc1,i
CCOC(=O)C1CCN(C(=O)CN(c2ccccc2)S(=O)(=O)c2cc(C)ccc2OC)CC1,i
CNC(=S)N1CCN(c2ccccc2F)CC1,i
CC(C)OC(C(=O)c1ccccc1)c1ccccc1 (stereo not given),1%
COc1ccc(C(=O)NC(=S)Nc2ccccc2N2CCOCC2)cc1[N+](=O)[O-],i
COc1ccc(CCNC(=S)NCCC2=CCCCC2)cc1OC,i
COc1ccccc1C(=O)NNC(=O)c1sc2ccccc2c1Cl,i
CCOc1ccc(-n2c(C)n[nH]c2=S)cc1,i
CC12CCC(C(=O)Nc3cccc(C(F)(F)F)c3)(c3nc4ccccc4nc31)C2(C)C (stereo not given),i
Cc1cc(C)c2c(N)c(C(=O)NC(C)C)sc2n1,i
Cc1sc2nc(SCC(=O)NCc3ccccc3)[nH]c(=O)c2c1C,i
O=C(Nc1cnc2ccccc2c1)N1CCCCC1,i
Cc1ccc(-c2csc3ncnc(Nc4ccc(Cl)cc4)c23)cc1,2%
CC(=O)c1ccc(OCCOCCSc2nc(C)cc(=O)[nH]2)cc1,i
Cc1ccc(NS(C)(=O)=O)c(C(=O)c2ccccc2)c1,i
COc1ccc(Cc2nc(SCC(=O)Nc3ccc(Cl)c(Cl)c3)n[nH]2)cc1,i
CCN1CCN(C(=S)Nc2ccc(C(C)=O)cc2)CC1,i
COc1ccc(C(=O)NC(=S)NCC2CCCO2)cc1OC (stereo not given),i
CCCn1nnnc1NC(=O)c1cc(Br)ccc1OC,?
CCc1cccc(C)c1NC(=O)CN(c1cc(C)cc(C)c1)S(=O)(=O)c1ccccc1,i
O=C1CCC(=O)N1OCc1ccc(F)cc1,i
O=C(NCc1ccccc1)c1ccc(N2CCCC2)c([N+](=O)[O-])c1,i
CCCC(=O)N1CCN(c2ccc(NC(=O)COc3ccc(C)c(C)c3)cc2Cl)CC1,0%
O=c1c2ccccc2nc(-c2ccc([N+](=O)[O-])cc2)n1-c1ccccc1Cl,3%

# More compounds:
SMILES,Mtb growth
COc1ccc2oc(=O)c(C(=O)Nc3ccc(O)cc3)cc2c1,i
COc1ccc(S(=O)(=O)NCc2ccco2)cc1-c1nnc2c3ccccc3c(C)nn12,i
COc1cc2[nH]c(=S)n(NC(=O)c3ccccc3)c(=O)c2cc1OC,i
CS(=O)(=O)N(CC(=O)Nc1ccccc1-c1ccccc1)c1ccc(Cl)c(Cl)c1,28%
COc1ccc(S(=O)(=O)Nc2ccc3c(c2)OCO3)c(Cl)c1Cl,i
CCOc1ccc(N2C(=O)C3C4c5ccccc5C(C(=O)O)(c5ccccc54)C3C2=O)cc1 (stereo not given),i
Cc1ccc(C)c(OCCCC(=O)N2CCOCC2)c1,i
O=C(CCS(=O)NCc1ccccc1)NCc1ccccc1 (stereo not given),i
O=C(CSCc1ccccc1Br)Nc1cc(C(F)(F)F)ccc1Cl,i
COc1ccc(-n2nnnc2SCC2CC2)cc1,i
C=CCc1cc(/C=C2\C(=O)NC(=S)N(c3cccc(C)c3C)C2=O)cc(OCC)c1O,i
Cc1ccc(C)c(N2CCN(S(=O)(=O)c3ccc(I)cc3)CC2)c1,i
CC(C)c1ccc(O)c(NC(=S)NC(=O)c2ccc3c(c2)OCO3)c1,?
Cn1c(=O)c([N+](=O)[O-])c(N2CCN(Cc3cccc4ccccc34)CC2)c2ccccc21,?
O=C(Oc1ccccc1)c1ccccc1Sc1ccc([N+](=O)[O-])cc1,2%
CCOC(=O)C1CCN(C(=O)CN(c2ccc(F)cc2)S(=O)(=O)c2ccccc2)CC1,i
COc1c(F)c(F)c(C(=O)Nc2ccc(Br)cc2Cl)c(F)c1F,0%
COc1ccc(CCNC(=O)CSc2nnc(CSc3nc(C)cc(C)n3)o2)cc1OC,i
Cc1cc(=O)oc2cc(OCC(=O)Nc3ccc(N4CCCCC4)cc3)ccc12,i
COc1ccc2nc(NC(=O)c3ccccc3-c3ccccc3C(=O)O)sc2c1,4%
COCCCNC(=S)NNC(=O)C(C)Oc1ccc(C(C)(C)C)cc1 (stereo not given),i
O=C(Oc1cccc2cccnc12)c1ccccc1Br,1.4µg/mL*
COC(=O)c1c(NC(=S)NCc2cn(-c3ccccc3)nc2-c2ccccc2)sc2c1CCC2,i
Cc1cc(C)c(NC(=O)CSc2nnc(-c3ccncc3)n2-c2ccc(Cl)cc2)c(Cl)c1,i
CC(Oc1ccc(Cl)cc1Cl)C(=O)N1CCN(c2ncccn2)CC1 (stereo not given),i

# Carrying on:
SMILES,Mtb growth
O=C(COc1cccc(Cl)c1)Nc1ccc(F)c(Cl)c1,5.7µg/mL*
CC1CCN(S(=O)(=O)c2ccc(NS(=O)(=O)c3cc(Cl)ccc3Cl)cc2)CC1,i
COC(=O)C(Sc1nc(C)cc(C)c1C#N)c1ccccc1 (stereo not given),i
CC(=O)NCCOc1nc(N2CCCCC2)nc(N2CCCCC2)n1,i
O=C(Nc1ccc(NC(=S)NC(=O)c2cccs2)cc1Cl)c1ccco1,i
O=C(NC(=S)NC12CC3CC(CC(C3)C1)C2)c1cccc(I)c1,i
Cc1ccc(NC(=O)Nc2ccc3c(c2)nc(C)n3C)cc1C,i
O=C(NC(=S)Nc1cccc(Cl)c1)C1CCCCC1,i
O=C(NC1CCCC1)c1cccc(NC(=O)c2ccco2)c1,i
COc1ccc(Cl)cc1NC(=S)NC(=O)c1ccc([N+](=O)[O-])cc1,2%
COC(=O)c1c(C)oc2ccc(NS(=O)(=O)c3cccs3)cc12,4%
COc1ccc(-c2n[nH]c(=S)n2N=Cc2ccc(-c3ccccc3)cc2)cc1,i
Cc1cc(=O)oc2cc(NC(=S)N3CCN(S(C)(=O)=O)CC3)ccc12,i
CCC1CCCCN1C(=O)c1cc2cc([N+](=O)[O-])ccc2oc1=O (stereo not given),i
CCn1c(SCC(=O)N2CCC(C)CC2)nc2scc(-c3ccc(Cl)cc3)c2c1=O,i
Cc1cccc(C)c1OCCCN(C)C,i
COc1ccc(N(Cc2ccc(C(=O)NCc3ccccn3)cc2)S(=O)(=O)c2ccccc2)cc1,i
O=C(NC1CCC(NC(=O)c2ccccc2Cl)CC1)c1ccccc1Cl (stereo not given),i
COc1ccc(/C(N)=N/OC(=O)c2cc(OC)c(OC)c(OC)c2)cc1OC,2%
c1ccc(-c2cn3c4ccccc4nc3n2CCN2CCOCC2)cc1,i
Cc1ccc(C(=O)Nc2ccccc2F)cc1Cl,3%
NC(=O)c1c(NC(=O)COc2ccc(Br)cc2Cl)sc2c1CCCC2,i
COc1ccc(Cl)cc1N(CC(=O)Nc1ccc(C(F)(F)F)cc1)S(C)(=O)=O,33%
CC(CNC(=O)c1ccccc1Br)c1ccccc1 (stereo not given),i
Cc1ccc(OCCCCOc2ncnc3ccccc23)cc1C,0%

# Further compounds
SMILES,Mtb growth
COc1ccc(CC(=O)NCCCCNC(=O)Cc2ccc(OC)cc2)cc1,i
CCCCOc1ccc(C(=O)NNC(=O)Nc2ccc(F)cc2F)cc1,i
CC(=O)c1ccc(NC(=S)NNC(=O)Cc2c(Cl)cccc2Cl)cc1,i
COc1ccc(OC)c(N(CC(=O)Nc2ccc(C(C)C)cc2)S(=O)(=O)c2ccccc2)c1,i
Cc1cc2ncn(CCOc3ccccc3C)c2cc1C,6.9µg/mL*
Cc1ccccc1COc1ccc2c(C)c(C)c(=O)oc2c1C,i
CC1=CC(C)(C)N2C(=O)C(=O)c3c4c(cc1c32)CCC4,16%
COC(=O)c1c(C)oc2ccc(N(C(C)=O)S(=O)(=O)c3ccc(F)cc3C)cc12,i
CCC(C)NS(=O)(=O)c1ccc(NS(=O)(=O)c2ccc(F)cc2)cc1 (stereo not given),i
CCc1ccc(CCC(=O)Nc2nnc(CC)s2)o1,i
CSc1ccc(S(=O)(=O)NCCOC23CC4CC(CC(C4)C2)C3)cc1,i
O=C(O)CSc1nnc2n(CCc3ccccc3)c(=O)c3c4c(sc3n12)CCCC4,1%
Cc1cc(=O)[nH]c(/N=C(\N)Nc2cccc(Cl)c2)n1,i
O=C(Cc1ccccc1)Nc1ccccc1N1CCCC1,2%
C=CCc1cc(S(=O)(=O)c2ccc(O)c(CC=C)c2)ccc1O,2%
O=C(COc1ccccc1)Oc1ccc2c(c1)oc(=O)c1ccccc12,i

# Reformatted field by field: 4 of the compounds above.
CCc1ccc(CCC(=O)Nc2nnc(CC)s2)o1
  Mtb growth: i

CC(=O)c1ccc(NC(=S)NNC(=O)Cc2c(Cl)cccc2Cl)cc1
  Mtb growth: i

O=C(O)CSc1nnc2n(CCc3ccccc3)c(=O)c3c4c(sc3n12)CCCC4
  Mtb growth: 1%

C=CCc1cc(S(=O)(=O)c2ccc(O)c(CC=C)c2)ccc1O
  Mtb growth: 2%

# Not all compounds are listed (hit frequency here may not be typical).
